Ecoli growth – E. coli growth inhibition, primary screen, OD600 | Escherichia coli growth, 23 h; active compounds read low | OD600 absorbance (test concentration not listed) | 330,000 compounds, 0.21% hits;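 active means OD600 absorbance below the run mean of sample wells minus 3.6 SD, in any replicate, cut at about 0.56 in these data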;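 further: stock transfer was 300 nL into about 60 µL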
Ecoli rRNA inh – reduced GFP signal of wild-type E. coli, primary screen, bacterial rRNA inhibitor project, GFP/RFP fluorescence, OD600, single point. 350,000 compounds, 1.6% hits. GFP signal change (wild-type ribosome), % (test concentration not listed). E. coli WT GFP vs humanized-ribosome RFP mutants, 24 h; active compounds read low; DMSO median 0, no signal -100. AID 720706, 2013;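 active means significant combined selectivity score with lowered wild-type GFP, culture density cut under 30%, mutant RFP and density less affected; inactive means any of these conditions unmet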; further: one replicate is shown; some compounds called inactive have numbers as strong as hits
UCH37 inh – inhibitors of human UCH37 deubiquitinase, primary screen, biochemical, Ub-AMC cleavage, fluorescence | 330,000 compounds, 0.33% hits | purified proteasome/UCH37 | AID 588478, 2011 | inhibition, % (test concentration not listed);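 active means mean of two replicates above 20%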;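 further: 0% = compound-free wells with enzyme and 100% = wells lacking proteasome; stock transfer was 100 nL into about 20 µL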
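Material: Human UCH37 enzyme supplied as purified proteasome complex | Schedule: 30 min preincubation with enzyme, 25 min cleavage at room temperature | Detection: AMC fluorescence 355/460 nm | Measure: % inhibition of Ub-AMC cleavage fluorescence | Controls: Wells without proteasome as full block, compound-free enzyme plus substrate as uninhibited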
ALR inh – inhibitors of human ALR sulfhydryl oxidase, primary screen, biochemical, H2O2 detection, HRP-luminol luminescence, single point; FAD-linked sulfhydryl oxidase ALR (Homo sapiens), P55789; purified ALR, DTT oxidation; inhibition, % (test concentration not listed); 290,000 compounds, 3.8% hits; AID 485317, 2010;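 active means mean and each replicate at 75% or more; inconclusive means only one of the two met; inactive means neither met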;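 further: stock transfer was 7.5 nL into about 7.5 µL; 0% = neutral wells and 100% = wells with inactivated enzyme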
Target sequence (P55789 whole entry, looked up): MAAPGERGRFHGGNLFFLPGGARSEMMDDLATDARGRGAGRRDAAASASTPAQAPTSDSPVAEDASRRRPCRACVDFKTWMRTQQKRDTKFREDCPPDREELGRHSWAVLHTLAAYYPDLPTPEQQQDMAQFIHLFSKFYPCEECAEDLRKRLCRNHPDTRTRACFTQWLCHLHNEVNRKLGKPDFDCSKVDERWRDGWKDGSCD
FGF22 binding – binders of human FGF22 protein, primary screen, FGF22 synaptogenesis inhibitor project, biophysical, thermal shift, single point | recombinant FGF22 thermal shift, SYPRO orange fluorescence; percent of sucrose octasulfate shift, DMSO zero | Fibroblast growth factor 22 (Homo sapiens), Q9HCT0 | 340,000 compounds, 1.5% hits | calls only at 9.99 µM | AID 651658, 2012;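 active means melting point raised past a set limit in the mean and every replicate; inconclusive means no clear call; three in four hits are not shown here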
Target sequence (Q9HCT0 whole entry, looked up): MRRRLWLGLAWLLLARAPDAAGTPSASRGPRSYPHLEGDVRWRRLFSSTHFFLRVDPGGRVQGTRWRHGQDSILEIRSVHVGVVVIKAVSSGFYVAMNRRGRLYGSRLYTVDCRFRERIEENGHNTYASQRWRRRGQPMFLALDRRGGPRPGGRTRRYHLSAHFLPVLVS
B2AR ag – beta2AR agonists driving receptor internalization, primary screen, cell-based, FAP fluorogen, flow cytometry. Beta-2 adrenergic receptor (Homo sapiens), P07550. 340,000 compounds, 0.43% hits. response, % (test concentration not listed). Am2.2-beta2AR cells; reference of the scale not given here;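 active means response above a set limit, near 3 SD of response in nonfluorescent compounds, cut at about 42% in these data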;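 further: stock transfer was 100 nL into about 11 µL; a reference agonist was the positive control; negative values mostly stem from fluorescent compounds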
Target sequence (P07550 whole entry, looked up): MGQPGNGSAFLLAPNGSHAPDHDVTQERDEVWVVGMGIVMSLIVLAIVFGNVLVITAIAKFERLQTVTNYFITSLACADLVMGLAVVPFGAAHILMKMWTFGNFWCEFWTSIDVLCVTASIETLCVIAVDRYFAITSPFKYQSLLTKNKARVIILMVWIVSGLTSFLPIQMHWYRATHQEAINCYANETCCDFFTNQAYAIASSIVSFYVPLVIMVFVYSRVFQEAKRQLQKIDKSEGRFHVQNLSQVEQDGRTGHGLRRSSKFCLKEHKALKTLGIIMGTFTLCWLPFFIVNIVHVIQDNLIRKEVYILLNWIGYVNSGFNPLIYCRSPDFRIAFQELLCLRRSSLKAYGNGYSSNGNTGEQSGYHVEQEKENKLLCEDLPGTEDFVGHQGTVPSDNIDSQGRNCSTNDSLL
HNF4A DNA FP – change in binding of human HNF4A to DNA, primary screen, biochemical, fluorescence polarization, FITC-DNA; Hepatocyte nuclear factor 4-alpha (Homo sapiens), P41235; 1 h; activity change, % at 10 µM; 360,000 compounds, 0.3% hits; AID 1224865, 2016; in the data active means activity change above about 30%, passing the limit was not always enough;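 further: controls were the assay level and a saturating level of protein; the project sought stronger binding though the title names inhibitors; some compounds called inactive have numbers as strong as hits; positive values seem to mean higher polarization but the record does not say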
Ecoli rRNA inh OD600 – recorded beside Ecoli rRNA inh, whose call it bears; OD600 change, %; measured here: OD600 growth;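 optical density of the mix in the first replicate; 0 = DMSO median and -100 = no signal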
Ecoli rRNA inh RFP – recorded beside Ecoli rRNA inh, whose call it bears; RFP signal change, %; measured here: RFP humanized mutant strains;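 first replicate; 0 = DMSO median and -100 = no signal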
Numbers without * were called inactive; i = inactive; ? = inconclusive; . = not tested or not shown.

Compound,Ecoli rRNA inh RFP,Ecoli growth,Ecoli rRNA inh,FGF22 binding,UCH37 inh,B2AR ag,HNF4A DNA FP,ALR inh,Ecoli rRNA inh OD600
Cc1csc(NC(=O)CSc2nnc(CCNC(=O)c3ccc(Cl)c(Cl)c3)n2C)n1,.,0.7,.,.,-1.1,-3,1.8,-4,.
Cc1nn(C(C)C(=O)NNC(=S)Nc2ccc(F)cc2)c(C)c1[N+](=O)[O-] (stereo unspecified),.,0.62,.,.,1.8,5,1.9,70,.
O=C(Oc1ccc(/C=N/NC(=O)c2ccccn2)cc1)c1cccc(F)c1,-1.2,.,11,i,.,-7,0.0,.,18
O=C1CC(C(=O)N2CCN(Cc3ccccc3)CC2)CN1Cc1ccccc1 (stereo unspecified),-1.9,0.64,-1,i,-1.8,-5,2.7,0,1
CCOc1ccccc1CN1CCN(Cc2ccon2)CC1CCO (stereo unspecified),-0.4,0.65,-4,i,2.5,9,4.2,.,4
CC(=O)c1cccc(NC(=O)CCOc2ccccc2)c1,.,0.69,.,.,5.5,4,-0.2,.,.
CN1C(=O)c2cccc3c(S(=O)(=O)Nc4ccccc4F)ccc1c23,-1.1,0.7,0,i,-5.4,-10,3.2,.,-7
Cc1ccc(S(=O)(=O)N2C[C@H]3[C@H]4C(=O)N(c5ccccc5)C(=O)[C@H]4C[C@H](OC(=O)Nc4cccs4)[C@@]3(O)C2)cc1,0.2,.,6,i,.,.,0.4,.,-2
CCN(CC)CCCNC(=O)c1ccc(C)c(NC(=O)C2=C(C)OCCS2)c1,0.6,0.64,3,i,2.8,-2,4.0,-10,12
COc1ccc(-c2cc(C(F)F)n3ncc(C(=O)N4CCc5ccccc5C4)c3n2)cc1,.,0.68,.,i,-166,1,5.5,-3,.
CC1CCC(NC(=O)CN2C(=O)c3ccccc3S2(=O)=O)CC1 (stereo unspecified),8.8,0.67,8,i,1.1,0,-0.3,-4,-1
Cc1cccc(OCC(=O)O/N=C(\N)Cc2ccc(Cl)cc2)c1,.,0.75,.,.,3.3,3,-1.2,-2,.
COc1ccc(C(=O)OCC(=O)c2ccc(CNC(C)=O)s2)cc1,4.0,0.63,-4,i,1.6,-2,-1.2,-4,-14
CC(C)(C)c1cc[n+](/C(C(=S)Nc2ccccc2F)=C(/[O-])c2ccc3c(c2)OCCO3)cc1,-1.7,0.69,-1,i,-1.8,-1,0.3,.,4
COCc1cc(/C=N\NC(=O)COc2ccccc2)ccc1OC,7.1*,.,-27*,i,.,3,1.5,-2,-7.4*
COCCNC(=O)Cn1nc(C(F)(F)F)c(Cl)c1C,.,0.75,.,.,5.1,-3,2.1,4,.
Cn1c(NCCOc2ccccc2Cl)nc2cc(-c3ccc(F)cc3)sc2c1=O,-2.2,.,9,i,.,.,0.0,.,12
CCC(C)(C)C1CCc2c(sc(NC(=O)c3cccs3)c2C(N)=O)C1 (stereo unspecified),-0.3,0.8,7,.,-233,9,-1.9,-8,10
Cc1nn(C)c(C(=O)N/N=C/c2ccccn2)c1[N+](=O)[O-],-0.4,.,3,i,.,-13,4.5,-1,5
O=C(CN1CCN(c2ccccn2)CC1)Nc1cc(F)ccc1F,1.3,0.68,10,i,2.4,2,2.3,-12,12
COc1ccc(CN2CCN(S(=O)(=O)c3ccc(C)cc3)CC2)cc1Br,.,0.72,.,.,1.5,-5,-0.2,-24,.
O=C(CSc1nc(Cc2ccccc2)nc2ccccc12)c1ccc2c(c1)OCCO2,18,0.74,-17,.,5.3,9,4.0,99*,-11
O=C1CCC([N+](=O)[O-])C(c2ccccc2Cl)N1 (stereo unspecified),.,0.68,.,.,-1.7,-2,2.1,4,.
O=C(CSc1ccc(-c2cccnc2)nn1)Nc1ccccc1,4.7,0.67,5,i,1.9,-4,-3.1,-4,0
O/C(=C\c1ccc2ccccc2n1)c1ccncc1,2.2,.,-7,i,.,-17,23,.,5

(further entries)
Compound,Ecoli rRNA inh RFP,Ecoli growth,Ecoli rRNA inh,FGF22 binding,UCH37 inh,B2AR ag,HNF4A DNA FP,ALR inh,Ecoli rRNA inh OD600
O=C(CSc1ncccn1)NC1CCS(=O)(=O)C1 (stereo unspecified),2.3,0.74,30,i,-1.0,6,-0.2,-10,25
c1ccc2c(N3CCCCCC3)nc(-c3ccncc3)nc2c1,.,0.68,.,.,-0.3,7,1.7,1,.
Cn1c(=O)[nH]c(=O)c2c1nc([N+](=O)[O-])n2Cc1ccccc1,5.2,0.62,16,.,4.2,67*,-1.4,-30,16
Cc1cc2nc(-c3cccc(Br)c3)c(CC(C)(C)C)n2c(C)c1Br,-4.1,.,1,i,.,.,1.4,.,7
COc1cccc(CNc2ccc(F)c(Cl)c2)c1OC,-1.5,0.67,-45,i,-0.2,-12,0.9,?,-57
[N-]=[N+]=NC[C@H](Cc1ccccc1)N1CC[C@@H](O)CCC1=O,7.9,.,9,i,1.1,-7,-0.7,37,10
O=C(N/N=C/C=C/c1ccccc1)c1ccccn1,-1.6,.,9,i,.,1,-1.7,-7,3
CN(CC#CCC(c1ccccc1)c1ccccc1)C(C)(C)C,.,0.64,.,.,3.0,12,1.9,1,.
O=C(NNC(=O)C(O)(c1ccccc1)c1ccccc1)C1CC1,-3.8,0.73,5,i,-1.8,-2,-0.7,-6,1
Cc1ccc(S(=O)(=O)CCC(=O)NCc2ccco2)cc1,.,0.73,.,.,-2.3,-8,1.0,-9,.
O=C(NC1CCCCC1)NC1CCN(C(=S)NCc2ccco2)CC1,.,0.68,.,.,1.1,2,4.2,44,.
C/C(CC(=O)NCc1ccco1)=N\NC(=O)Cc1cccc2ccccc12,.,.,.,.,.,1,2.6,4,.
Cc1cc(NC(=O)c2c(F)cccc2F)n(-c2nc3ccccc3[nH]2)n1,.,0.63,.,.,2.6,-1,-0.1,-6,.
COc1ccc(-c2cc(N3C(=O)Nc4ccccc4N3O)n[nH]2)c(OC)c1,-0.9,0.73,1,i,0.7,-6,-4.3,-38,1
COc1ccc(/C(N)=N/OC(=O)c2ccco2)cc1,0.2,0.65,-14,.,0.1,2,-2.4,-10,-16
Cc1cc(/C=C2\SC(=Nc3ccc(N4CCOCC4)cc3)N(C)C2=O)c(C)n1-c1cccnc1,.,0.66,.,.,2.6,7,4.6,.,.
Cc1cnc(C(=O)N(CC(C)C)c2c(N)n(CC(C)C)c(=O)[nH]c2=O)cn1,.,0.69,.,.,5.8,-1,2.0,.,.
Cc1cc(N2C(=O)C(O)=C(C(=O)c3ccc(C)o3)C2c2cccc(Oc3ccccc3)c2)no1 (stereo unspecified),24,.,-2,i,.,2,-2.6,12,11
COC(=O)c1ccccc1N=Nc1c(N)n[nH]c1N,3.2,0.71,7,i,13,-6,4.0,91*,2
CN1CCN(CCCNC(=O)c2cc3c(=O)oc4ccccc4c3s2)CC1,.,0.77,.,.,-1.6,-18,3.8,-2,.
CCN(CC)CCNCC(O)(c1ccc(Cl)cc1)c1ccc(Cl)cc1,-15,0.65,-54,i,2.9,9,-0.9,0,-78
CCCCN(CCCC)S(=O)(=O)c1ccc(OC)c2ncccc12,.,0.69,.,.,0.0,-3,2.4,-2,.
Cc1nn(CC(=O)NCc2cccnc2)c(C)c1[N+](=O)[O-],0.1,0.72,-2,i,4.1,4,-0.7,.,-5
COc1cccc(C(=O)c2ncc(C(F)(F)F)cc2Cl)c1,1.9,0.67,8,i,-0.9,-9,-2.5,-22,3
O=C(c1ccc2c(c1)OCO2)N1CCC2(CC1)Oc1ccc(Cl)cc1C(=O)C21CC(c2ccccc2)=NO1 (stereo unspecified),-7.8,0.69,10,i,0.6,-6,0.9,.,15

(continued)
Compound,Ecoli rRNA inh RFP,Ecoli growth,Ecoli rRNA inh,FGF22 binding,UCH37 inh,B2AR ag,HNF4A DNA FP,ALR inh,Ecoli rRNA inh OD600
CC(C(=O)Nc1nc(-c2ccc(F)cc2)cs1)N1C(=O)C2CC=CCC2C1=O (stereo unspecified),3.8,0.64,-13,i,-1.0,36,1.3,0,-21
COC(=O)c1ccc(C(=O)OC)c(NC(=O)COC(=O)C2CCC(C(C)(C)C)CC2)c1 (stereo unspecified),.,0.66,.,.,-23,2,1.9,1,.
COc1ccc(C2C(C(=O)c3cccs3)=C(O)C(=O)N2Cc2cccnc2)cc1OC (stereo unspecified),-0.2,0.68,7,i,7.8,3,1.8,-8,5
CC(C)CN(C(=O)CSc1nc2ccccc2c(=O)[nH]1)c1c(N)n(CC(C)C)c(=O)[nH]c1=O,-1.8,0.7,-1,i,4.7,11,-0.4,.,10
O=C(CCCOc1ccccc1)Nc1cccc(S(=O)(=O)N2CCCCCC2)c1,3.7,0.71,-16,i,5.1,0,2.4,2,-28
CC(=O)N(c1nc(/C=C\C(=O)O)cs1)c1ccccc1F,8.5,0.65,5,i,0.1,1,0.2,-2,4
Cc1c(Br)cccc1NC(=O)C1(C)CCN1Cc1ccccc1OC(F)F (stereo unspecified),-4.6,.,-10,i,.,.,1.6,.,-35
Cc1ccc(CN(C)C(=O)c2cccc(S(=O)(=O)N3CCCC3)c2)o1,4.0,0.71,17,i,1.2,-3,0.4,3,12
O=C(c1cc([N+](=O)[O-])[nH]n1)N1CCSCC1,1.8,0.65,16,i,-0.9,0,3.6,-2,2
COc1ccccc1/C=C1\C(=O)Nc2ccccc21,-5.3,0.68,-4,i,8.4,4,-1.7,4,-6
CCOC(=O)CCCc1sc(N)nc1-c1[nH]c(=O)[nH]c1C,.,0.66,.,.,1.8,0,-4.8,-23,.
COC1CCCN(Cc2nc(Cc3ccccc3F)no2)C1 (stereo unspecified),-1.2,0.7,4,.,-1.0,2,1.3,-6,2

Arranged by molar mass (lowest first): part of the list above
Compound,Ecoli rRNA inh RFP,Ecoli growth,Ecoli rRNA inh,FGF22 binding,UCH37 inh,B2AR ag,HNF4A DNA FP,ALR inh,Ecoli rRNA inh OD600
COc1cccc(CNc2ccc(F)c(Cl)c2)c1OC,-1.5,0.67,-45,i,-0.2,-12,0.9,?,-57
CN(CC#CCC(c1ccccc1)c1ccccc1)C(C)(C)C,.,0.64,.,.,3.0,12,1.9,1,.
O=C(CN1CCN(c2ccccn2)CC1)Nc1cc(F)ccc1F,1.3,0.68,10,i,2.4,2,2.3,-12,12
Cc1ccc(CN(C)C(=O)c2cccc(S(=O)(=O)N3CCCC3)c2)o1,4.0,0.71,17,i,1.2,-3,0.4,3,12
CCC(C)(C)C1CCc2c(sc(NC(=O)c3cccs3)c2C(N)=O)C1 (stereo unspecified),-0.3,0.8,7,.,-233,9,-1.9,-8,10
Cn1c(NCCOc2ccccc2Cl)nc2cc(-c3ccc(F)cc3)sc2c1=O,-2.2,.,9,i,.,.,0.0,.,12

This is a subset. The share of hits here may be higher or lower than overall.
